Assay outcomes (PubChem BioAssay)
INS promoter inh – inhibitors of insulin promoter-driven GFP, primary screen, imaging, TRM-6 cells (human fetal islet line), eGFP reporter, cell count | 0.9% of 130,000 active | reporter expression induced with tamoxifen | inhibition, % at 2 µM;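 active = inhibition above the mean plus 3 SD, with well images judged a real hit on visual review, cut at about 60% in these data, passing the limit was not always enough; inconclusive = inhibition over the cutoff but images rejected on review; inactive = inhibition not above the cutoff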
RGS16-Gao HTS – modulators of RGS16 binding to Galphao, primary screen, biochemical, human proteins, multiplexed bead flow cytometry; AID 1441, 2008; binding response (% of control), % at 10 µM; 0.38% of 220,000 active; bead-based flow cytometry RGS16-Galphao binding, fluorescence; actives lie on both sides; Regulator of G-protein signaling 16 (Homo sapiens) + Guanine nucleotide-binding protein …;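 active = below 25% or above 175%, edge rows of some plates excepted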;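 note: Galphao activated by GDP with aluminum fluoride before binding; 100% = wells without compound and 0% = beads without RGS; some results beyond the cut were filed as inactive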
Target sequence (O15492 whole entry, looked up): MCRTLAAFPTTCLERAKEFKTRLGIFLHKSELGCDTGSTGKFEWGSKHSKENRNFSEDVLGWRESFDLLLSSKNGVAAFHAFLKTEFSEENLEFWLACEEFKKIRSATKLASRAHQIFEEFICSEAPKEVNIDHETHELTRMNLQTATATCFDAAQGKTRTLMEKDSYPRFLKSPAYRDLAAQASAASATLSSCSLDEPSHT
Target sequence (P09471 whole entry, looked up): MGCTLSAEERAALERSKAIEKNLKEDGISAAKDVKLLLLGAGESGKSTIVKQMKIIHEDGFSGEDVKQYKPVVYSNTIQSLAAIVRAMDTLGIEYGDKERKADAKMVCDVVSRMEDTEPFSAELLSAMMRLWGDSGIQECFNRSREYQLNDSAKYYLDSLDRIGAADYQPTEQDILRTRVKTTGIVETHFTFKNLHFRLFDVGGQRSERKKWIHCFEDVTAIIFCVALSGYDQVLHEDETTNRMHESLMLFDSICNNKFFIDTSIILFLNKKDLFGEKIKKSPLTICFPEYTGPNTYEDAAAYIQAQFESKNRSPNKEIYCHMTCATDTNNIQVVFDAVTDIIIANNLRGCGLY
PKD1 kinase inh – inhibitors of human PKD1 kinase, biochemical, fluorescence polarization. Serine/threonine-protein kinase D1 (Homo sapiens), Q15139. PKD1 kinase fluorescence polarization assay. inhibition, %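 (about 10 µM by stock and volumes)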. 0.056% of 200,000 active. AID 797, 2007;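 active = inhibition of 50% or more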;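 note: controls were vehicle for no effect and a reference inhibitor for full effect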
HSV replic up – enhancers of HSV replication in host cells, fold increase, host cell viability. maximum fold increase. HSV replication augmentation in cells. 0.005% of 220,000 active. AID 1956, 2009;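 active = peak rise of 1.5-fold or more in the series; inconclusive = self-fluorescent or not available for retest; tested in PC3 cells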;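 note: first round at 10 µM; read as green reporter fluorescence; hits show the peak of a series up to 25 µM; 1 = signal of infected wells without compound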
GALR2 ag – GALR2 receptor agonists, primary screen, cell-based; Galanin receptor type 2 (Homo sapiens), O43603; GALR2-expressing cells, agonist activation read-out; activation, %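 (tested at 5 µM)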; 0.48% of 140,000 active;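 active = above mean plus 3 SD of all compounds, about 5% in these data, not always enough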;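 note: 0% = vehicle buffer wells and 100% = reference agonist at full effect; tested in CHO reporter cells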
Target sequence (O43603 whole entry, looked up): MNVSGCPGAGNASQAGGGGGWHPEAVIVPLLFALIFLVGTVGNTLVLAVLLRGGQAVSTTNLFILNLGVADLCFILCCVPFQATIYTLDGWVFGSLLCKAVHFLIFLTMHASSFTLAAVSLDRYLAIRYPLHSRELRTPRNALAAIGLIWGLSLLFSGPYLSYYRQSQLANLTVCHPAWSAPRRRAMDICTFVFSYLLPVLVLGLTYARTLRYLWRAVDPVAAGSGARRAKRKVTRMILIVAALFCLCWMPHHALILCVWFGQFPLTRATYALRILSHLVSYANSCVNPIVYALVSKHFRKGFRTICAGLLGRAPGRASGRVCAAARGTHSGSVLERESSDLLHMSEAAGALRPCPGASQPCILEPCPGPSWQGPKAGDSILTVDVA
INS promoter inh cell count – also measured in INS promoter inh; calls as there; normalized cell count, %; measured here: cell count, toxicity; reference of the scale not given here;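 cells exposed to compound for 48 h; stained nuclei by imaging scaled within each plate; lower means fewer cells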
HSV replic up primary fold – further read-out of HSV replic up, marked with its call; fold increase; compound at 10 µM; measured here: primary screen fold increase 10 uM; tested in PC3 cells;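 GFP signal in the first replicate; 1 = infected wells without compound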
Numbers without * were called inactive; i = inactive; ? = inconclusive; · = not tested or not shown. Not all compounds are listed. The share of hits here may be higher or lower than overall.

SMILES	INS promoter inh	INS promoter inh cell count	RGS16-Gao HTS	PKD1 kinase inh	HSV replic up	HSV replic up primary fold	GALR2 ag
N#CCCn1cc(C(=O)Nc2ccc(F)cc2)c(-c2ccc([N+](=O)[O-])cc2)n1	18	115	98	0	i	0.91	·
CC(=NCCC1=CCCCC1)c1c(O)n(C)c(=O)n(C)c1=O	·	·	103	-12	i	0.97	1.6
Cc1ccc(N)c(C(=O)c2ccc(Br)cc2)c1	-20	73	102	0	i	1	·
CCC1C2Cn3c(nc4ccccc43)C1N(C)O2 (stereo not given)	·	·	103	·	i	0.97	·
N#CC(C#N)=Cc1ccc(-c2ccccc2)o1	0	102	113	-5	i	1	1.0
CC(C(=O)c1c[nH]c2ccccc12)N1CCc2ccccc2C1 (stereo not given)	6	94	94	-15	·	·	-2.1
Cc1[nH]c2c(C(F)(F)F)cccc2c1CCN	59	63	99	1	i	0.73	-0.9
CCC(=NCc1ccco1)c1c(O)[nH]c(=O)[nH]c1=O	-9	79	105	-5	i	0.95	-1.1
Cc1ccc(S(=O)(=O)N2CCC(C(=O)N3CCC4(CC3)OCCO4)CC2)cc1	·	·	91	19	i	1.1	0.6
CCN1CCN(c2ccc(N)cc2C)CC1	·	·	101	-4	i	0.98	·
CC1(C)OC(c2ccccc2)=C/C(=C/C=C2C(=O)NC(=S)NC2=O)O1	·	·	85	-7	?	·	·
Cc1ccc(OCCn2cccc2/C=C2/C(=O)NC(=O)N(Cc3ccco3)C2=O)cc1	·	·	101	·	i	1.1	·
O=C(Cn1c2c(c(-c3ccccc3Cl)cc1=O)CCC2)N1CCC2(CC1)OCCO2	38	72	77	-4	i	0.97	-1.9
COc1cc2[nH]c(=O)n(-c3ccccc3)c(=O)c2cc1OC	-380	102	89	-10	i	0.99	-0.5
CC(C)CCC1(CN2CCCC2=O)C(=O)NC(=O)NC1=O	9	187	100	-2	i	1	-2.3
O[C@H]1[C@H](O)[C@@H](O)CN2CC[C@H](O)[C@H]12	-48	140	102	-6	i	0.9	-1.4
O=c1[nH]c(=O)n(CCc2ccc(F)cc2)c(O)c1C=NCCCN1CCOCC1	-15	105	92	-1	i	0.95	-0.6
OC1/C(=C/c2ccc(Cl)cc2Cl)N2CCC1CC2 (stereo not given)	·	·	98	-6	i	1	·
CC(C)Nc1nc(Cl)nc(NC(C)C)n1	31	130	94	-2	i	0.89	1.3
Cc1cc(C)n2nc(SCC(=O)N3CCC4(CC3)OCCO4)nc2n1	·	·	90	-5	i	0.87	7.8
O=C(c1ccc(Br)cc1)C12CN3CN(CN(C3)C1)C2	-11	91	98	0	i	0.94	·
CC1CCCCN1Cc1c[nH]c2ccccc12 (stereo not given)	·	·	113	·	i	0.9	·
CN1C(=O)N(C)C(=O)C2(Cc3c(ccc4ccccc34)N(C)C2)C1=O	-129	54	100	-11	i	0.97	0.0
O=c1[nH]c(=O)n(-c2cccc3ccccc23)c(O)c1/C=N/N1CCCCCC1	·	·	97	·	i	1	·
CC(C)OC(=O)c1c(N)n(Cc2ccco2)c2nc3ccccc3nc12	-33	109	97	3	i	1.1	0.7
CCn1c(O)c(C=NCCN2CCOCC2)c(=O)[nH]c1=S	·	·	101	·	i	1	·
C=CCN1C(=O)NC(=O)C(Cc2ccc(OC)c(OC)c2)C1=O (stereo not given)	53	39	88	-1	i	0.92	-0.5
CC(C)OCCCNC(=O)c1c(N)n(CC2CCCO2)c2nc3ccccc3nc12 (stereo not given)	14	130	97	-2	i	0.63	12*
CN(C)C(=O)Oc1ccc(Cl)c2ccccc12	0	86	104	-6	i	0.93	-4.4
CCOc1cc(C2NCc3ccccc3-n3cccc32)ccc1O (stereo not given)	·	·	108	-1	·	·	-0.9
CC(C)C(=O)NC(Oc1ccccc1Cl)C(Cl)(Cl)Cl (stereo not given)	·	·	106	0	i	0.95	·
CC1(C)CN=C(Nc2ccc(F)c(F)c2)S1	·	·	102	4	i	0.99	-0.2
Cc1c(C(=O)N2CCC3(CC2)OCCO3)sc2ncnc(N3CCc4ccccc4C3)c12	50	34	76	-4	i	0.8	·
CCOC(=O)[C@]1(C#N)[C@@H]2C=CC(C(N)=O)=CN2[C@@H](C(N)=O)[C@@H]1c1ccc(F)cc1	·	·	98	·	i	1.1	·
C=C(C)CN1CC[C@]23c4c5ccc(O)c4O[C@H]2c2[nH]c4ccccc4c2C[C@@]3(O)C1C5	·	·	100	·	i	0.87	·
Cn1cc(C(=O)N2CCOCC2)c2ccccc21	·	·	102	-3	i	0.98	·
CCC(CC)C(=O)NC1CCSC1=O (stereo not given)	11	134	92	-2	i	1	-4.5
O=C(c1ccc2nc3ccc(Cl)cc3c(=O)n2c1)N1CCC2(CC1)OCCO2	-41	44	·	-3	·	·	1.1
O=c1[nH]c(=S)n(C2CC2)c(O)c1C=NCCc1ccccc1	·	·	106	·	i	1	·
CSc1ccc(CNC(C)C(O)c2ccccc2)cc1 (stereo not given)	·	·	102	1	i	0.91	·
CCc1sc(C(=O)N2CCC3(CC2)OCCO3)cc1Br	·	·	99	-2	i	0.94	-1.6
N=C1SCC(=O)N1Cc1ccccc1	44	73	103	-12	i	1	·
O=C1OCc2cc(N=Nc3c(O)[nH]c(=O)[nH]c3=O)ccc21	·	·	103	·	i	1.3	·
CNCC(O)c1ccc(O)cc1 (stereo not given)	30	96	·	-3	i	0.68	-1.2
CCN1CC2([N+](=O)[O-])CC=C(Cl)C([N+](=O)[O-])(C1)C2 (stereo not given)	0	97	101	1	i	1.2	·
CC(C)c1ccc(-n2c(O)c(/C=N/N3CCOCC3)c(=O)[nH]c2=S)cc1	·	·	100	·	i	0.99	·
Nc1ccc([As](=O)(O)O)cc1	14	82	102	-2	i	1.1	-2.2
CCN(CC)CC(=O)Nc1ccc(Cl)cc1C(=O)c1ccccc1	46	116	107	-10	i	1	0.1
COc1ccc(N2C(=O)CC(=O)NC2=O)cc1	-286	75	103	-3	i	0.99	-2.6
Cc1nn(Cc2ccccc2)c(Cl)c1C(=O)OCC(=O)N1CCCC1	18	133	102	1	i	1.3	·
COC(=O)c1ccccc1-n1c(C)nc2ccccc2c1=O	55	107	83	-12	i	0.93	-0.3
O=C(N/N=C/c1c(O)n(CCC2=CCCCC2)c(=O)[nH]c1=O)c1ccccc1	35	128	93	-4	i	0.95	-2.2
CCc1c(C)nc(N)nc1N1N=C1SC(C(C)=O)C(C)=O	·	·	100	-1	i	1	·
CCCCN=Cc1c(O)n(-c2c(C)cc(C)cc2C)c(=O)[nH]c1=O	25	42	95	-6	i	0.91	-0.7
CN(C)C(=O)Oc1ccc2ccccc2c1Cl	14	131	100	8	i	0.9	3.3
NCCc1c[nH]c2ccc(F)cc12	-6	137	·	-10	i	0.94	-3.2
Cc1ccccc1-n1c(O)c(/C=N/NC(=O)c2ccccc2O)c(=O)[nH]c1=S	·	·	99	·	i	0.96	·
CCCCn1c(O)c(C(C)=NCCc2c[nH]c3ccccc23)c(=O)[nH]c1=O	·	·	101	·	i	0.9	·
CCOc1cccc(OCC)c2c(C)[n+](CC3CCCO3)c(C)c1-2 (stereo not given)	10	99	89	-1	i	0.93	-1.8
O=c1c2ccccc2[nH]c(=S)n1-c1ccc2c(c1)OCCO2	·	·	96	·	i	1	·
Following part
SMILES	INS promoter inh	INS promoter inh cell count	RGS16-Gao HTS	PKD1 kinase inh	HSV replic up	HSV replic up primary fold	GALR2 ag
CCOC(=O)C1=C(N)OC2=C(C(=O)CCC2)C12C(=O)N1c3c(ccc(C)c32)C(C)=CC1(C)C (stereo not given)	15	132	100	-2	i	0.82	-2.2
CCN(CC)C(=O)c1ccc(NC(=O)CSc2nnnn2-c2cc(OC)ccc2OC)cc1	·	·	98	2	i	1.1	-1.4
CC/C(=N\N1CCCCCC1)c1c(O)n(-c2ccc(C)cc2)c(=O)[nH]c1=O	·	·	72	-6	i	1.1	0.2
O=c1c2cc(Cl)cc(Cl)c2nc(CN2CCOCC2)n1-c1ccccc1F	23	123	97	-5	i	1.1	-2.5
CN1CCN(/N=C/c2c[nH]c3ccccc23)CC1	·	·	101	·	i	0.92	·
COc1ccc(NC(=S)NC(NC(=O)CF)C(Cl)(Cl)Cl)c([N+](=O)[O-])c1 (stereo not given)	·	·	23	-1	i	1	-1.4
O=C1c2ccccc2C(=O)N1Cc1nc2ccccc2c(=O)n1-c1ccccn1	-9	94	102	-3	i	1.1	-3.4
Cc1ccc(-n2c(O)c(/C=N/Nc3ccccc3)c(=O)[nH]c2=O)cc1C	·	·	102	·	i	1.2	·
CCCCn1c(O)c(C=Nc2c(C)n(C)n(-c3ccccc3)c2=O)c(=O)[nH]c1=O	·	·	98	13	i	0.96	-0.2
NC(CC(=O)O)C1CCCCC1 (stereo not given)	·	·	100	-2	i	0.95	·
CC1CN(c2ccc([N+](=O)[O-])c(N3CCCCC3)c2)CCN1 (stereo not given)	·	·	102	·	i	0.9	·
COCCOC(=O)c1c(N)n(Cc2ccc(OC)cc2)c2nc3ccccc3nc12	·	·	98	2	i	1	1.0
Cc1c(N=Cc2c(O)n(Cc3ccccc3)c(=O)[nH]c2=O)c(=O)n(-c2ccccc2)n1C	29	130	102	-10	i	0.93	-3.1
CCN(CC)CCN=Cc1c(O)n(CCC2=CCCCC2)c(=O)[nH]c1=O	55	120	103	-4	i	0.93	-3.9
CC(CCc1ccccc1)NC(C)C(O)c1ccc(O)cc1 (stereo not given)	10	73	107	-3	i	0.82	-1.5
CCN(CC)CCCN=Cc1c(O)n(CCc2ccc(OC)c(OC)c2)c(=O)[nH]c1=O	31	92	95	-3	i	0.86	0.4
NC(=O)CSP(=O)(c1ccccc1)c1ccccc1	-22	162	81	-3	i	1.1	-1.2
C=CCNC(=S)Nc1ccc(OC(=O)Nc2ccc(Cl)c(Cl)c2)cc1	·	·	98	·	i	1	·
CCN(CC)C1=NC(=[N+](CC)CC)c2ccccc21	68	92	99	-6	i	1	-2.4
C=Cn1ccnc1P(=S)(c1c(C)nn(-c2ccccc2)c1C)c1nccn1C=C	9	58	213	-11	i	0.89	-0.6
OCC12COC3c4ccccc4C(OC1)N32 (stereo not given)	-137	49	99	-7	i	0.86	-1.3
O=C(Nc1ccncc1)c1cccn(Cc2ccccc2)c1=O	·	·	103	-3	i	0.98	·
CCc1ccc(NC(=O)CN2CC(c3ccccc3)CC2=O)cc1 (stereo not given)	·	·	100	·	i	1.1	·
CC(c1ccccc1)n1cncc1C(=O)O (stereo not given)	-444	58	98	1	i	1	-1.1
CN1CCN(CCOC2c3ccccc3CSc3ccc(Cl)cc32)CC1 (stereo not given)	-64	139	97	-3	i	0.88	1.1
CCc1ccc(NC(=O)C(C)OC(=O)c2c(C)nn(Cc3ccccc3)c2Cl)cc1 (stereo not given)	·	·	63	0	i	0.91	-1.9
CC12CCC(=O)C=C1CCC1C2CCC2(C)C(O)CCC12 (stereo not given)	·	·	110	1	i	1	-1.3

Reprinted at random: 7 records from the list
SMILES	INS promoter inh	INS promoter inh cell count	RGS16-Gao HTS	PKD1 kinase inh	HSV replic up	HSV replic up primary fold	GALR2 ag
OCC12COC3c4ccccc4C(OC1)N32 (stereo not given)	-137	49	99	-7	i	0.86	-1.3
O=C(Nc1ccncc1)c1cccn(Cc2ccccc2)c1=O	·	·	103	-3	i	0.98	·
CC(c1ccccc1)n1cncc1C(=O)O (stereo not given)	-444	58	98	1	i	1	-1.1
CC12CCC(=O)C=C1CCC1C2CCC2(C)C(O)CCC12 (stereo not given)	·	·	110	1	i	1	-1.3
CN1CCN(CCOC2c3ccccc3CSc3ccc(Cl)cc32)CC1 (stereo not given)	-64	139	97	-3	i	0.88	1.1
CCc1ccc(NC(=O)CN2CC(c3ccccc3)CC2=O)cc1 (stereo not given)	·	·	100	·	i	1.1	·
CCc1ccc(NC(=O)C(C)OC(=O)c2c(C)nn(Cc3ccccc3)c2Cl)cc1 (stereo not given)	·	·	63	0	i	0.91	-1.9
